Vaccinia stage – blocks a specific stage of Vaccinia orthopoxvirus infection; Vaccinia-infected cells, mCherry/Venus stage reporter fluorescence; active compounds read low; some inactives read as strong as hits; activity change (mCherry), % (concentration not given with the values); 89,000 compounds, 0.01% hits;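 active = mCherry past -33% and 40 or more points under the early reporter, replicates agreeing; inconclusive = past -33% without that gap or agreement; tested in A549 cells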;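 note: scaled between vehicle wells and reference inhibitor wells; 23 nL library stock went into each well; one replicate is shown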
Vaccinia stage Venus – further read-out of Vaccinia stage, marked with its call; activity change (Venus), %; measured here: Venus reporter, other viral stage;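 negative = less Venus signal; first of two replicates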
An asterisk follows results filed as active; ? = inconclusive; . = no result given; & = joins results of further samples.

Below each compound – Vaccinia stage	Vaccinia stage Venus
CN(C)C(=O)C[C@@H]1CC[C@@H]2[C@@H](COc3ccc(NS(=O)(=O)c4cccc(F)c4)cc3C(=O)N2C)O1
  7	3
CCCN1[C@H](C(=O)N[C@@H](C)c2ccccc2)[C@@H](CO)[C@@H]2Cn3c(ccc(-c4ccccc4)c3=O)[C@@H]21
  -17	-16
COc1ccc(C#Cc2ccc([C@@H]3[C@H](CO)N4C(=O)CN(C(=O)c5ccccc5)C[C@@H]34)cc2)cc1
  ?	.
C/C=C/c1ccc([C@@H]2[C@H](C#N)N(C(=O)c3cccnc3)[C@H]2CO)cc1
  1	7
COc1ccc(CN2[C@H](CO)[C@H]3c4ccccc4N(C(=O)Nc4ccc(F)cc4)C[C@H]32)cc1
  ?	.
COCCNC(=O)C[C@H]1C=C[C@@H](NS(=O)(=O)c2ccc(C)cc2)[C@H](CO)O1
  0	7
COc1cccc(-c2cnc3c(c2)C(=O)N([C@H](C)CO)C[C@H](C)[C@H](CN(C)S(C)(=O)=O)O3)c1
  7	6
O=C(Nc1cccc(F)c1)N1CCCCN2[C@H](C1)[C@H](c1ccc(-c3ccccc3F)cc1)[C@@H]2CO
  ?	.
CN1CCN(C(=O)C[C@@H]2CC[C@@H]3[C@H](COc4ccc(NC(=O)c5cccs5)cc4C(=O)N3C)O2)CC1
  -9	-4
O=C(C[C@@H]1CC[C@H](NC(=O)Nc2ccc(F)cc2)[C@H](CO)O1)NCc1ccccn1
  10	5
Cc1noc(C)c1NC(=O)Nc1ccc2c(c1)C(=O)N([C@@H](C)CO)C[C@H](C)[C@H](CN(C)C(=O)Nc1ccc(F)cc1)O2
  11	9
C[C@@H]1CCCCO[C@@H](CN(C)Cc2ccc(Cl)c(Cl)c2)[C@@H](C)CN([C@@H](C)CO)C(=O)c2cc(NS(C)(=O)=O)ccc2O1
  ?	.
O=C(Nc1cccc(Cl)c1)N[C@H]1CC[C@H](CCNC(=O)C2CCOCC2)O[C@H]1CO
  3	-8
O=C(C[C@@H]1CC[C@H](NC(=O)C2CCOCC2)[C@@H](CO)O1)Nc1nccs1
  -8	5
C[C@H]1CN([C@@H](C)CO)C(=O)Cc2cc(NC(=O)CCN3CCOCC3)ccc2O[C@H]1CN(C)C(=O)Nc1ccc2c(c1)OCO2
  3	0
CC(C)c1cn(CC[C@H]2CC[C@@H](NS(=O)(=O)c3ccc(F)cc3)[C@@H](CO)O2)nn1
  6	9
CCNC(=O)C[C@@H]1CC[C@H]2[C@@H](COc3ccc(NC(=O)Nc4ccc(Cl)cc4)cc3C(=O)N2C)O1
  4	-2
COc1cccc(NC(=O)C[C@H]2CC[C@H]3[C@H](COc4ccc(NC(C)=O)cc4C(=O)N3C)O2)c1
  16	18
C[C@@H]1CN([C@H](C)CO)C(=O)c2cc(C#CC3CCCCC3)cnc2O[C@H]1CN(C)C(=O)Cc1ccccn1
  -16	-7
C[C@@H]1CN([C@@H](C)CO)C(=O)Cc2cc(NC(=O)Nc3cccc4ccccc34)ccc2O[C@H]1CN(C)S(=O)(=O)c1ccc(Cl)cc1
  27	26
CC(C)C#Cc1ccc([C@H]2[C@@H](C#N)N(C(=O)C3CCOCC3)[C@H]2CO)cc1
  -16	-12
C[C@@H]1CCCCO[C@H](CN(C)C(=O)CCCN(C)C)[C@@H](C)CN([C@@H](C)CO)C(=O)c2cc(NC(=O)Nc3ccc(F)cc3)ccc2O1
  14	-1
CN(C)CCCNC(=O)[C@@]1(c2ccc([N+](=O)[O-])cc2)CC(=O)N(C2CCCCC2)[C@@H]1c1ccc(CO)cc1I
  -9	-13
CC(C)c1cn(CC[C@H]2CC[C@H](NC(=O)C3CCOCC3)[C@H](CO)O2)nn1
  24	16
COc1ccc(NC(=O)N(C)C[C@H]2Oc3ccc(NC(=O)Nc4ccc5c(c4)OCO5)cc3C(=O)N([C@H](C)CO)C[C@H]2C)cc1
  7	1
CCS(=O)(=O)N[C@H]1CC[C@@H](CC(=O)NCc2ccc(F)cc2)O[C@@H]1CO
  0	2
COCC(=O)Nc1ccc2c(c1)OC[C@H](C)N(C(=O)NC(C)C)C[C@@H](C)[C@H](OC)CN(C)C2=O
  1	3
CC(C)C#Cc1cnc2c(c1)C(=O)N([C@@H](C)CO)C[C@H](C)[C@@H](CN(C)C(=O)Nc1ccccc1F)O2
  12	16
COc1ccc2c3c([nH]c2c1)[C@@H](CO)N(C(=O)c1ccncc1)CC31CCN(C(=O)c2ccncc2)CC1
  16	18
C[C@H](CO)N1C[C@H](C)[C@@H](CN(C)Cc2ccc(Cl)c(Cl)c2)OCCCC[C@H](C)Oc2ccc(NS(C)(=O)=O)cc2C1=O
  ?	.
C[C@@H]1CCCCO[C@H](CN(C)Cc2ccccc2)[C@@H](C)CN([C@@H](C)CO)C(=O)c2cc(NC(=O)CCCCCC(=O)Nc3ccccc3N)ccc2O1
  -14	-3
C[C@H]1CN([C@@H](C)CO)C(=O)c2cccc(NS(=O)(=O)c3cccs3)c2O[C@H]1CN(C)C(=O)Nc1ccc2c(c1)OCO2
  4	-1
Cc1noc(C)c1S(=O)(=O)Nc1ccc2c(c1)C(=O)N([C@H](C)CO)C[C@@H](C)[C@H](CN(C)C(=O)c1ccccc1)OCCCC[C@@H](C)O2
  30	14
C[C@@H]1CN([C@@H](C)CO)C(=O)c2cc(N(C)C)ccc2O[C@H]1CN(C)Cc1ccc(-c2ccccc2)cc1
  -10	-3
COc1cccc(NC(=O)Nc2ccc3c(c2)C(=O)N(C)[C@@H]2CC[C@@H](CC(=O)NCCc4ccccc4)O[C@H]2CO3)c1
  -4	1
C[C@H](CO)N1C[C@H](C)[C@H](CN(C)S(=O)(=O)c2cccc(F)c2)Oc2ncc(-c3cccc(C(=O)N(C)C)c3)cc2C1=O
  14&16	8&10
CCC(=O)Nc1ccc2c(c1)OC[C@H](C)N(CC1CCOCC1)C[C@@H](C)[C@H](OC)CN(C)C2=O
  0	-10
C[C@H]1CCCCO[C@@H](CN(C)C)[C@@H](C)CN([C@@H](C)CO)C(=O)c2cc(NC(=O)Cc3ccccc3)ccc2O1
  -14	2
CCC(=O)Nc1ccc2c(c1)OC[C@@H](C)N(CC1CC1)C[C@@H](C)[C@@H](OC)CN(C)C2=O
  2	5
CCCNC(=O)N[C@@H]1CC[C@@H](CC(=O)N2CCN(C)CC2)O[C@@H]1CO
  8	4

One compound at a time, from the list above.
CN(C)CCCNC(=O)[C@@]1(c2ccc([N+](=O)[O-])cc2)CC(=O)N(C2CCCCC2)[C@@H]1c1ccc(CO)cc1I is listed with Vaccinia stage: -9; Vaccinia stage Venus: -13
CCCNC(=O)N[C@@H]1CC[C@@H](CC(=O)N2CCN(C)CC2)O[C@@H]1CO is listed with Vaccinia stage: 8; Vaccinia stage Venus: 4
CCS(=O)(=O)N[C@H]1CC[C@@H](CC(=O)NCc2ccc(F)cc2)O[C@@H]1CO is listed with Vaccinia stage: 0; Vaccinia stage Venus: 2

(next part)
Below each compound – Vaccinia stage	Vaccinia stage Venus
C[C@H]1CCCCO[C@@H](CN(C)S(=O)(=O)c2ccccc2)[C@@H](C)CN([C@@H](C)CO)C(=O)c2cc(NS(C)(=O)=O)ccc2O1
  22	5
CCC(=O)N[C@H]1CC[C@H](CC(=O)NCc2ccccc2OC)O[C@H]1CO
  -3	0
COc1ccc(S(=O)(=O)N(C)C[C@H]2Oc3ccc(NC(=O)Cc4cn(C)c5ccccc45)cc3C(=O)N([C@@H](C)CO)C[C@H]2C)cc1
  -15	-3
CCCNC(=O)[C@@H]1[C@@H](CO)[C@@H]2Cn3c(ccc(-c4ccccc4F)c3=O)[C@@H]2N1C(=O)CC
  12	5
C[C@@H]1CN([C@H](C)CO)C(=O)c2cc(N(C)C)ccc2O[C@@H]1CN(C)Cc1ccncc1
  18	19
C[C@@H]1CN([C@@H](C)CO)C(=O)c2cc(NC(=O)CCCN(C)C)ccc2O[C@H]1CN(C)Cc1ccc(-c2ccccc2)cc1
  -19	-16
C[C@H](CO)N1C[C@H](C)[C@@H](CN(C)S(=O)(=O)c2ccc(F)cc2)Oc2ccc(N(C)C)cc2CC1=O
  -6	-10
COc1ccc(NC(=O)N(C)C[C@H]2Oc3ccc(NS(=O)(=O)c4ccc(OC)cc4)cc3C(=O)N([C@H](C)CO)C[C@H]2C)cc1
  -6	-3
CO[C@H]1CN(C)C(=O)c2ccc(NC(=O)Nc3ccccc3)cc2OC[C@@H](C)N(C(=O)CC2CC2)C[C@@H]1C
  2	2
C[C@@H]1CN([C@@H](C)CO)C(=O)CCCn2cc(nn2)CO[C@H]1CN(C)C(=O)Nc1ccccc1
  -1	-2
Cc1noc(C)c1S(=O)(=O)Nc1ccc2c(c1)C(=O)N([C@H](C)CO)C[C@H](C)[C@H](CN(C)Cc1ccncc1)OCCCC[C@H](C)O2
  4	3
C[C@@H]1CN([C@H](C)CO)C(=O)Cc2cc(NC(=O)CCC(F)(F)F)ccc2O[C@@H]1CN(C)Cc1ccc(-c2ccccc2)cc1
  ?	.
C[C@@H]1CN([C@@H](C)CO)C(=O)c2cccc(NC(=O)C3CCOCC3)c2O[C@H]1CN(C)Cc1ccccc1
  2	4
C[C@H](CO)N1C[C@H](C)[C@@H](CN(C)C(=O)CN(C)C)Oc2cc(C#CC(C)(C)O)ccc2S1(=O)=O
  19	2
Cc1ccc(S(=O)(=O)N2CC[C@@H]3[C@H](CO)Nc4ccc(-c5ccccc5F)cc4[C@@H]32)cc1
  -19	-8
COc1ccc(CNC(=O)C[C@H]2C[C@H]3c4cc(N(C)C)ccc4O[C@H]3[C@H](CO)O2)cc1
  1	3
O=C(Cc1ccccc1)N1CC(=O)N2[C@@H](CO)[C@H](c3ccc(Br)cc3)[C@@H]2C1
  18	4
CO[C@H]1CC[C@@H]2CCN(C)C(=O)C[C@H](c3ccccc3)CN(C)C(=O)c3cc(C#N)ccc3OC[C@H]1O2
  -6	-9
COc1ccc([Si](C)(C)[C@@H]2[C@@H](CCO)O[C@]3(C(=O)N(Cc4ccccc4)c4ccc(N5CCOC5=O)cc43)[C@H]2C)cc1
  ?	.
C/C=C/c1ccc([C@H]2[C@@H](CO)N3C(=O)CN(C(=O)Nc4ccccc4F)C[C@@H]23)cc1
  -2	-13

(next part)
molecule	Vaccinia stage	Vaccinia stage Venus
COC(=O)[C@H]1[C@H](CO)[C@H]2Cn3c(cccc3=O)[C@@H]1N2C(=O)C1CC1	4	8
C[C@@H]1CN([C@@H](C)CO)C(=O)c2cc(NC(=O)c3ccncc3)ccc2O[C@@H]1CN(C)S(C)(=O)=O	7	5
CCCNC(=O)C[C@H]1CC[C@@H]2[C@@H](COc3ccc(NC(=O)CC)cc3C(=O)N2C)O1	-1	6
O=C(C[C@@H]1CC[C@H]2[C@@H](COC[C@@H](O)CN2CCC(F)(F)F)O1)NCc1ccc2c(c1)OCO2	19	24
CO[C@@H]1CN(C)C(=O)c2ccc(NC(=O)C3CCC3)cc2OC[C@@H](C)N(Cc2nccs2)C[C@H]1C	3	3
CO[C@@H](CN(C)S(=O)(=O)c1cccc(Cl)c1)[C@@H](C)CN(C(=O)Nc1ccccc1F)[C@H](C)CO	-3	-1
C[C@H](CO)N1C[C@H](C)[C@@H](CN(C)C(=O)Nc2ccc(C(F)(F)F)cc2)Oc2ccc(NC(=O)CCC(F)(F)F)cc2C1=O	6	-5
O=C(NCC[C@@H]1CC[C@@H](NC(=O)C2CCCC2)[C@H](CO)O1)c1cnccn1	-10	3
O=C(C[C@H]1C[C@H]2c3cc(NC(=O)C4CCC4)ccc3O[C@H]2[C@@H](CO)O1)NCc1ccc(Cl)cc1	14	7
O=C([C@H]1[C@H](CO)[C@H]2Cn3c(ccc(-c4cccnc4)c3=O)[C@@H]1N2CC1CC1)N1CCCCC1	19	16
O=C(C1CC1)N1CC2(C1)[C@@H](c1ccccc1)[C@@H](CO)N2Cc1ccc(Cl)cc1	-4	2
C[C@@H]1CN([C@@H](C)CO)C(=O)c2cc(NC(=O)Nc3cccc4ccccc34)ccc2O[C@@H]1CN(C)S(=O)(=O)c1ccc(F)cc1	1	-3
C[C@H]1CN([C@@H](C)CO)C(=O)c2cc(C#CC3CCCCC3)cnc2O[C@@H]1CN(C)C(=O)Cc1ccccn1	-13	-7
C[C@@H]1CN([C@H](C)CO)C(=O)Cc2cc(NS(C)(=O)=O)ccc2O[C@H]1CN(C)Cc1ccc(C(=O)O)cc1	0	-2
C[C@@H]1CN([C@H](C)CO)C(=O)c2cc(NC(=O)CCCN(C)C)ccc2O[C@@H](C)CCCCO[C@@H]1CN(C)S(=O)(=O)c1cccs1	9	-3

Sorted by length of the SMILES (high to low): part of the list above.
molecule	Vaccinia stage	Vaccinia stage Venus
C[C@H](CO)N1C[C@H](C)[C@@H](CN(C)Cc2ccc(Cl)c(Cl)c2)OCCCC[C@H](C)Oc2ccc(NS(C)(=O)=O)cc2C1=O	?	.
COc1ccc(NC(=O)N(C)C[C@H]2Oc3ccc(NC(=O)Nc4ccc5c(c4)OCO5)cc3C(=O)N([C@H](C)CO)C[C@H]2C)cc1	7	1
C[C@@H]1CN([C@@H](C)CO)C(=O)c2cccc(NC(=O)C3CCOCC3)c2O[C@H]1CN(C)Cc1ccccc1	2	4
CO[C@@H]1CN(C)C(=O)c2ccc(NC(=O)C3CCC3)cc2OC[C@@H](C)N(Cc2nccs2)C[C@H]1C	3	3
O=C(Nc1cccc(F)c1)N1CCCCN2[C@H](C1)[C@H](c1ccc(-c3ccccc3F)cc1)[C@@H]2CO	?	.
CC(C)c1cn(CC[C@H]2CC[C@@H](NS(=O)(=O)c3ccc(F)cc3)[C@@H](CO)O2)nn1	6	9
COC(=O)[C@H]1[C@H](CO)[C@H]2Cn3c(cccc3=O)[C@@H]1N2C(=O)C1CC1	4	8

Some of the compounds tested; the hit share may differ from the screen's.
